Beta cell apopt: blocks beta cell apoptosis | INS-1E cytokine-induced death, ATP luminescence, 48 h; percent of positive-control rescue, neutral wells zero | protection from apoptosis, % (concentration not given with the values) | actives 0.8% (n = 300,000);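 active = all replicates at 75% or more, or half of them and the mean; inconclusive = half reach 75% but not the mean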;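 note: 0% = cytokine-treated negative control wells and 100% = positive control rescue; higher means more ATP so stronger rescue from cytokine killing; wells of about 40 µL received 100 nL stock; the first replicate is given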
Ecoli rRNA inh: selective bacterial rRNA inhibition in E. coli; E. coli WT GFP vs humanized-ribosome RFP mutants, fluorescence, 24 h; active compounds read low; DMSO median 0, no signal -100; actives 1.6% (n = 350,000); GFP signal change (wild-type ribosome), % (no concentration beside the values); AID 720706;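 active = significant combined selectivity score with lowered wild-type GFP, culture density cut under 30%, mutant RFP and density less affected; inactive = any of these conditions unmet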; note: one replicate is shown; some compounds called inactive have numbers as strong as hits
ALR inh: inhibitors of human sulfhydryl oxidase ALR. purified ALR, DTT oxidation, H2O2 HRP-luminol luminescence. inhibition, % (concentration not given with the values). actives 3.8% (n = 290,000);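 active = mean and each replicate at 75% or more; inconclusive = only one of the two met; inactive = neither met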;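 note: stock transfer was 7.5 nL into about 7.5 µL; 0% = neutral wells and 100% = wells with inactivated enzyme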
Target sequence (P55789 whole entry, looked up): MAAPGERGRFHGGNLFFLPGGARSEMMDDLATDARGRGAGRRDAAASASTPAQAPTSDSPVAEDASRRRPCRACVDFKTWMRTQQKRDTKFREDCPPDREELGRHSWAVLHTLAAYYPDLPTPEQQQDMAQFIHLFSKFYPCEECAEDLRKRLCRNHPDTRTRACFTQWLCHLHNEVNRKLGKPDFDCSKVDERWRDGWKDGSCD
MLL AF4-AF9 inh: MLL-AF4/AF9 protein interaction inhibition; P42568; AlphaScreen, biotin-AF4 peptide binding to FLAG-AF9; inhibition, % at 10 µM; actives 0.47% (n = 350,000);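 active = every replicate reaching a set inhibition limit, whatever the replicate mean, cut at about 25% in these data; inconclusive = mean inhibition reaches that limit but some replicates miss it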;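 note: 0% = plate neutral control median and 100% = total signal loss; the record names both 10 and 1 µM as test concentration; the first replicate is given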
Target sequence (P42568 whole entry, looked up): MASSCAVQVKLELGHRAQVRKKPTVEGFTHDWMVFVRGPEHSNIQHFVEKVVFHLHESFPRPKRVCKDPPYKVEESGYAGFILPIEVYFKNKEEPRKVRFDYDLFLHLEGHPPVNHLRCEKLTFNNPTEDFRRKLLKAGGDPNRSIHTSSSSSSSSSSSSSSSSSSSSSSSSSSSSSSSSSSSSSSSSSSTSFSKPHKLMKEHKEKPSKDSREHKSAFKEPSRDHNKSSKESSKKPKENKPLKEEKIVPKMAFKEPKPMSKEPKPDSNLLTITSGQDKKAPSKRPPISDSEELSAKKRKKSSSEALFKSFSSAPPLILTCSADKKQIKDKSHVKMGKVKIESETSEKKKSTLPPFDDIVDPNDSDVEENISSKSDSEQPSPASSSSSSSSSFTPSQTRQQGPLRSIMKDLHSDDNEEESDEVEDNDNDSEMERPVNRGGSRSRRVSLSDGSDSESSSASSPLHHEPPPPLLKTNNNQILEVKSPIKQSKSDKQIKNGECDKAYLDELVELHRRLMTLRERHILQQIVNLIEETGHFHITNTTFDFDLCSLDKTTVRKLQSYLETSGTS
Calb FLC: C. albicans growth modulation with fluconazole. actives 0.57% (n = 300,000). AID 1979. growth inhibition, % (no concentration beside the values). C. albicans CaCi-2 (fluconazole-resistant clinical isolate) + fluconazole, Alamar Blue growth, 48 h;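 active = most replicates above 75%; inconclusive = exactly half above 75%; inactive = most below 75%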;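 note: all wells also contain fluconazole at 8 µg/ml as a sub-toxic cotreatment; 0% = median of DMSO wells and 100% = median of geldanamycin control wells; wells of about 8 µL received 7.5 nL stock; the first replicate is given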
T cruzi repl: T. cruzi replication inhibition | T. cruzi beta-gal in NIH3T3, luminescence, 90 h | inhibition, % (no concentration beside the values) | actives 1.4% (n = 300,000) | AID 1885;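 active = mean inhibition across valid replicates above about 55%, limit read from the data; inconclusive = mean below that limit but half or more replicates reach it; inactive = mean below it, under half of replicates reach it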;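 note: signal also drops with host cell toxicity which is not excluded here; 0% = plate median of DMSO wells and 100% = zero luminescence signal; higher percent means less beta-gal luminescence so fewer parasites; stock transfer was 50 nL into about 50 µL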
RanGTP-Impb inh: inhibitors of RanGTP-importin-beta interaction, primary screen, biochemical, FRET, CFP-Ran, YFP-importin-beta, homogeneous; actives 1.1% (n = 300,000); inhibition, % (concentration not given with the values); cell-free CFP-Ran/YFP-importin-beta FRET ratio; AID 2216;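 active = most replicates above 15%; inconclusive = exactly half above 15%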;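 note: 0% = DMSO wells and 100% = Ran loaded with GDP instead of GTP; wells of about 40 µL received 100 nL stock; the first replicate is given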
FGF22 binding: binders of recombinant human FGF22 by thermal shift; Q9HCT0; SYPRO orange fluorescence; percent of sucrose octasulfate shift, DMSO zero; calls only at 9.99 µM; actives 1.5% (n = 340,000);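 active = melting point raised past a set limit in the mean and every replicate; inconclusive = no clear call; three in four hits are not shown here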
Target sequence (Q9HCT0 whole entry, looked up): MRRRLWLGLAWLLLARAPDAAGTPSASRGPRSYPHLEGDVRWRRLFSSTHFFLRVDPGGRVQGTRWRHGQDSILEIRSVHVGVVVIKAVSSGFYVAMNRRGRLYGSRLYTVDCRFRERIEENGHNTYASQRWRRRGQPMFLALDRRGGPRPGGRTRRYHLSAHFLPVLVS
Ecoli rRNA inh OD600: second read-out of Ecoli rRNA inh, no call of its own (marks repeat the call); OD600 change, %; measured here: OD600 growth;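 optical density of the mix in the first replicate; 0 = DMSO median and -100 = no signal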
Ecoli rRNA inh RFP: recorded beside Ecoli rRNA inh, whose call it bears; RFP signal change, %; measured here: RFP humanized mutant strains;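 first replicate; 0 = DMSO median and -100 = no signal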
* = called active by the depositor; i = inactive; ? = inconclusive; / = no result given; & = joins results of further samples.

mol	Beta cell apopt	Ecoli rRNA inh	Ecoli rRNA inh OD600	Ecoli rRNA inh RFP	ALR inh	MLL AF4-AF9 inh	Calb FLC	T cruzi repl	RanGTP-Impb inh	FGF22 binding
COc1cc2c(cc1NCc1ccc3c(c1)OCO3)oc1ccccc12	-5.2	/	/	/	26.8	9.6	-2.6	19.4	-2.0	/
Cn1c(=O)oc2cc(S(=O)(=O)NCc3ccc(C(=O)O)cc3)ccc21	-4.2	12.8	10.7	0.0	-4.7	?	2.7	-1.8	-2.8	/
CCOC(=O)CSc1nnc(CSc2nc3sc4c(c3c(=O)[nH]2)CCC4)n1C	/	/	/	/	-0.4	/	-9.1	-14.0	-1.3	/
COc1ccc(N(CC(=O)NCc2ccccc2)C(=O)CCC(=O)Nc2cc(C)ccn2)c(OC)c1	-4.9	7.5	-5.0	8.5	-1.2	-3.8	0.4	1.8	0.6	i
O=C(CNC(=S)N(Cc1ccccc1)Cc1cccnc1)NC1CCCCC1	1.7	-9.4	-12.1	-1.3	-3.4	-5.5	1.5	64.2*	5.4	i
COC(C[C@@H](O)CC(=O)COCc1ccccc1)OC	/	-6.5	-4.9	6.0	/	-0.9	-10.6	-9.7	-4.6	i
Cc1ccc(NC(=O)C(C)OC(=O)CCC2CCCCC2)cc1 (stereo not drawn)	3.7	6.9	7.1	-0.2	-6.3	-22.5	-3.2	-6.1	2.3	i
CC1=C(C(=O)OCC2CCCO2)C(c2ccccc2Cl)NC(=O)N1 (stereo not drawn)	1.1	/	/	/	4.7	/	5.3	10.7	0.7	/
Cc1cccc(C(=O)NC2CCN(CC(=O)Nc3ccc4c(c3)OCO4)CC2)c1	-7.5	-0.2	-5.2	-4.9	-4.6	-1.8	7.3	-7.6	1.4	i
CCOC(=O)c1c(C)[nH]c(C)c1C(=O)COC(=O)c1ccc(Cl)c(S(N)(=O)=O)c1	-4.4	/	/	/	-24.7	/	-24.1	-11.2	1.3	/
C[C@@H]1CN([C@H](C)CO)C(=O)c2cccc(NS(=O)(=O)c3cccs3)c2O[C@H]1CN(C)Cc1ccccc1	2.0	0.0&4.3	4.1&-9.2	2.2&-4.4	2.9	-0.7&6.3	/	/	/	i
CC(=O)NS(=O)(=O)c1ccc(NC(=O)c2ccc(NC(=O)c3cccs3)cc2)cc1	-1.7	2.0	12.1	3.6	-7.8	1.3	/	/	/	i

Ordered by molecular weight (descending): some entries from above.
mol	Beta cell apopt	Ecoli rRNA inh	Ecoli rRNA inh OD600	Ecoli rRNA inh RFP	ALR inh	MLL AF4-AF9 inh	Calb FLC	T cruzi repl	RanGTP-Impb inh	FGF22 binding
COc1ccc(N(CC(=O)NCc2ccccc2)C(=O)CCC(=O)Nc2cc(C)ccn2)c(OC)c1	-4.9	7.5	-5.0	8.5	-1.2	-3.8	0.4	1.8	0.6	i
Cc1cccc(C(=O)NC2CCN(CC(=O)Nc3ccc4c(c3)OCO4)CC2)c1	-7.5	-0.2	-5.2	-4.9	-4.6	-1.8	7.3	-7.6	1.4	i
Cn1c(=O)oc2cc(S(=O)(=O)NCc3ccc(C(=O)O)cc3)ccc21	-4.2	12.8	10.7	0.0	-4.7	?	2.7	-1.8	-2.8	/

More entries
mol	Beta cell apopt	Ecoli rRNA inh	Ecoli rRNA inh OD600	Ecoli rRNA inh RFP	ALR inh	MLL AF4-AF9 inh	Calb FLC	T cruzi repl	RanGTP-Impb inh	FGF22 binding
Cc1[nH]c(=O)c(C(=O)/C=C/c2ccccc2F)c2c1CCCC2	6.9	-18.4*	6.3*	5.7*	63.2	-3.5	-26.6	?	5.8	i
N#CCCCN1C(=O)C(O)(CC(=O)c2ccc3c(c2)OCCO3)c2ccccc21 (stereo not drawn)	-8.9	/	/	/	-6.3	/	-32.6	-14.5	2.8	/
CC(C)NC(=O)NC(=O)CSc1nnc(C(F)(F)F)n1C	4.3	18.6	12.5	-1.0	1.2	-3.7	7.2	-25.1	-1.0	i
N#Cc1cc([N+](=O)[O-])cnc1NCC(O)CO (stereo not drawn)	-4.0	/	/	/	-4.8	/	1.5	-3.3	0.3	/
Cc1nccn1CCCNC(=O)CC1C(=O)NCCN1Cc1ccc(F)cc1Cl (stereo not drawn)	2.1	8.0	17.4	1.5	-3.0	4.6	-2.8	-12.9	0.6	i
CC(C)c1ccc(NC2CCCN(C(=O)c3cccc(N4CCNC4=O)c3)C2)cc1 (stereo not drawn)	1.3	-12.2	-8.3	1.8	94.8*	5.0	8.5	9.3	3.2	i
COC(=O)C1=CN(C(C)C)C=C(C(=O)OC)C1c1cccc(OC)c1	-0.9	/	/	/	23.9	/	3.7	14.2	66.2*	/
O=C(C1=NNCC1c1ccccc1)C1CO1 (stereo not drawn)	/	9.0	7.5	-1.4	/	2.7	-12.8	-13.6	-5.1	i
Cc1cc(NC(=O)CCC(=O)N(c2cccc(F)c2)C(C(=O)NC2CCCC2)c2ccc(C)o2)no1 (stereo not drawn)	-2.8	1.4	3.1	-0.2	/	1.3	12.7	12.0	4.2	i
Cc1cccc(NC(=S)NCCO)c1C	/	/	/	/	-5.4	/	2.6	-14.5	-1.6	/
Nc1ncnc2c1ncn2C1OC(COP(=O)(O)O)C(O)C1O (stereo not drawn)	-12.8	/	/	/	-0.6	-1.0	6.0	-16.0	-11.2	i
COc1ccc(OC)c(NC(=O)Cc2ccc(NC3=NC4CS(=O)(=O)CC4S3)cc2)c1 (stereo not drawn)	-9.0	8.9	13.8	0.5	-39.7	3.8	-10.1	3.3	-0.5	i
Clc1ccc(OCCSCc2nc3ccccc3[nH]2)cc1	-4.1	/	/	/	-1.3	/	-29.1	12.2	-4.3	/
COC(=O)CCC(=O)OC1(C)C(=O)C=C2C=C3CCCN3C=C2C1=O (stereo not drawn)	0.6	8.4	10.1	-2.3	-30.8	-10.4	3.5	-7.1	2.6	i
Cc1cccc(-c2ncc(CN3CCCC(CO)(Cc4ccccc4C)C3)cn2)c1 (stereo not drawn)	-6.7	-31.8	-65.0	13.9	-10.3	-1.5	38.7	36.1	4.5	i
Cc1ccc(CCNC(=O)CCS(=O)(=O)c2cc3c(cc2C)NC(=O)CO3)cc1	0.9	3.3	2.8	-3.9	-8.4	2.3	-7.9	-13.3	-3.5	i
Cc1ccccc1CC(=O)Nc1cc(C(C)(C)C)on1	-4.1	-21.4	-23.5	-3.8	5.4	2.1	3.0	-3.2	-1.4	i
FC(F)(F)c1cc(CO[C@@H]2CCCN[C@@H]2c2ccccc2)cc(C(F)(F)F)c1	16.1	-55.5	-79.3	-18.6	-26.4	-0.4	/	/	/	i
O=C(NCCC(=O)N1CCC2(CC1)NCCc1[nH]cnc12)c1cccc(Cl)c1	-7.9	1.3	1.3	3.8	-3.3	0.9	-3.6	-2.4	-1.0	i
COC(=O)c1sc(NC(=O)CSc2nnnn2-c2cccc(OC)c2)nc1C	24.5	/	/	/	-3.3	/	27.8	19.0	-0.3	/
CCOc1ncccc1C(=O)N(CC)CC(=O)NCc1ccc(Cl)cc1	/	0.6	-0.6	-3.4	-1.8	1.7	-2.7	-11.8	2.0	i
Cc1nc(CCNC(=O)CC2C(=O)NCCN2Cc2ccoc2)nc2c1CCCC2 (stereo not drawn)	-0.3	/	/	/	-2.4	/	0.0	0.1	?	/
CCOc1ccc2[nH]c(S(=O)(=O)CC)nc2c1Cl	0.3	/	/	/	-11.5	/	0.8	-8.4	1.4	/
O=c1ccc(Oc2nc(N3CCOCC3)nc(N3CCOCC3)n2)n[nH]1	-6.1	/	/	/	0.1	/	-0.6	-1.8	7.9	/

The last 4 entries of the part before are carried over, then new ones follow.
mol	Beta cell apopt	Ecoli rRNA inh	Ecoli rRNA inh OD600	Ecoli rRNA inh RFP	ALR inh	MLL AF4-AF9 inh	Calb FLC	T cruzi repl	RanGTP-Impb inh	FGF22 binding
CCOc1ncccc1C(=O)N(CC)CC(=O)NCc1ccc(Cl)cc1	/	0.6	-0.6	-3.4	-1.8	1.7	-2.7	-11.8	2.0	i
Cc1nc(CCNC(=O)CC2C(=O)NCCN2Cc2ccoc2)nc2c1CCCC2 (stereo not drawn)	-0.3	/	/	/	-2.4	/	0.0	0.1	?	/
CCOc1ccc2[nH]c(S(=O)(=O)CC)nc2c1Cl	0.3	/	/	/	-11.5	/	0.8	-8.4	1.4	/
O=c1ccc(Oc2nc(N3CCOCC3)nc(N3CCOCC3)n2)n[nH]1	-6.1	/	/	/	0.1	/	-0.6	-1.8	7.9	/
CC(=O)c1c(N)[nH]c(-c2ccccc2)nc1=S	1.9	/	/	/	-2.1	/	0.6	-5.7	7.3	/
CCOC(=O)C1(C/C(C)=N/NC(N)=O)CC(C)OC1=O (stereo not drawn)	-4.2	17.9	13.9	2.4	/	-4.9	-5.7	-10.4	?	i
O=C1CC(N2CCN(C3CC(=O)N(CCc4ccccc4)C3=O)CC2)C(=O)N1CCc1ccccc1 (stereo not drawn)	-4.8	/	/	/	4.5	/	8.8	4.0	4.4	/
Cn1cnnc1SCC(=O)NCCC(c1ccccc1)c1ccccc1	-1.8	/	/	/	2.2	/	4.4	-5.7	-1.7	/
CCOc1ccccc1N1CCN(C(=O)CCNS(=O)(=O)c2ccccc2F)CC1	2.6	-2.2	-2.9	0.1	71.9	-23.0	-1.6	8.0	-1.0	i
CCCS(=O)(=O)N1CCCC(C(=O)N2CCOCC2)C1 (stereo not drawn)	-0.3	/	/	/	-18.4	/	-3.0	4.2	-1.5	/
COc1ccc(C(=O)N/C(=C\c2cn(C)c3ccccc23)C(=O)OCC(C)C)cc1	-8.1	20.9	9.6	1.0	-3.0	6.1	-8.3	24.1	-3.4	i
Clc1ncnc2c1oc1ccccc12	-6.3	/	/	/	2.8	/	18.8	-2.5	?	/
COC(=O)CCC(=O)Nc1ccc(N=Nc2ccccc2)cc1	1.2	-4.0	0.6	3.2	-5.1	0.1	-21.9	-0.8	-1.8	i
CCOCCCNC(=O)C1CCN(c2cc(C)nc3c(-c4ccc(OC)c(OC)c4)c(C)nn23)CC1	/	/	/	/	-4.7	/	3.0	16.2	-2.0	/
COCc1cc([C@@H]2C[C@H]3CN(c4ccccc4)C(=O)[C@]34CCCN24)ccc1OC	17.6	16.4	4.2	7.9	-9.2	3.3	1.8	-10.2	7.3	i
Cc1cc(Cl)ccc1NC(=O)CCN1C(=O)C2CCCCC2C1=O (stereo not drawn)	-5.0	-3.6	-2.6	-2.4	/	-0.6	/	/	/	i
CCOC(=O)Nc1ccc2c(CN3CCN(S(=O)(=O)c4ccccc4)CC3)cc(=O)oc2c1	8.2	/	/	/	2.4	/	-4.0	48.2	3.3	/
Cn1c(SCC(=O)c2ccc(F)cc2)nnc1-c1ccccc1N	-3.4	/	/	/	0.2	/	-4.8	5.2	-2.8	/
O=C(NC1CCCC1)c1ccc2c(c1)N(Cc1ccccc1)CCS2	6.5	2.0	8.6	-2.1	17.1	1.3	10.9	6.9	3.7	i
Cc1cc(C)n(CC(=O)N2CCCC(N3CCN(c4cccc(C(F)(F)F)c4)CC3)C2)n1 (stereo not drawn)	-3.5	1.9	-1.7	0.4	0.6	1.5	-11.5	7.0	-4.1	i

The list is partial; rates above refer to the full screens.
